High-throughput results as filed in PubChem.
Sa helicase inh = blocks Staphylococcus aureus DNA helicase; purified S. aureus helicase, fluorescence unwinding assay; about half of the hits fall short of the stated cut; inhibition, %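 (tested at about 80 µM)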; 120,000 tested, 0.05% active;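 active means both duplicates at 50% or more, or one of them with a favoured structure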;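 further: 0% = mean of negative control wells and 100% = mean of positive control wells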
MgrA DNA FP = alters Staphylococcus aureus MgrA binding to DNA; 84,000 tested, 0.13% active; inhibition, %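 (about 10 µg/mL by stock and volumes)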; fluorescence polarization; AID 602314;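 active means above 50% in either of two replicates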;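 further: 0% = protein plus DNA without compound and 100% = DNA alone without protein; higher means less MgrA bound to DNA so lower polarization; one replicate is shown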
Numbers without * were called inactive; nt = not tested or not shown; ! = not active in a repeat. An excerpt; count on the stated rates, not on these rows.

SMILES | Sa helicase inh | MgrA DNA FP
COc1ccccc1N/C=C(\C#N)S(=O)(=O)c1ccc(Cl)cc1 | nt | 1.4
NS(=O)(=O)c1ccc(NC(=O)CS)cc1 | 10 | 3.0
Cc1ccc(-c2noc(CCC(=O)NCCCN3CCN(c4ccc(F)cc4)CC3)n2)cc1 | 6 | 0.8
C=C(C)Cn1c(CCNC(=O)c2cc(OC)c(OC)c(OC)c2)nc2ccccc21 | 10 | -0.9
CC1Sc2cc(-c3ccc(Br)cc3)cn2C1=O (stereo unspecified) | -19 | nt
CCN(CC1COc2ccccc2O1)S(=O)(=O)c1cccs1 (stereo unspecified) | 26 | nt
CCOc1ccc(Br)cc1C(=O)Nc1c[nH]c(=O)[nH]c1=O | 6 | -1.8
Cc1nc(CS(=O)(=O)c2ccc(Cl)cc2)sc1C(=O)O | nt | -2.0
CC(N)=NCCCn1ccnc1 | nt | 0.3
CCCCN1C(=O)CCC(C(=O)O)C1c1ccccc1 (stereo unspecified) | nt | -7.2
Cc1cc(=O)c2cc(F)cc(F)c2[nH]1 | nt | -3.4
O=C(Nc1ccccc1)NC1CS(=O)(=O)CC1O (stereo unspecified) | -8 | nt
O=C(COc1ccccc1F)Nc1cc(C(F)(F)F)ccc1Cl | 11 | nt
CC1c2cccn2CCN1S(=O)(=O)c1ccccc1 (stereo unspecified) | 3 | nt
CCN(Cc1cccc(Cl)c1Cl)C(=O)c1cnc(OC)cc1C(F)(F)F | nt | 1.0
c1ccc(-c2nc(-c3noc(-c4ccccc4)n3)no2)cc1 | nt | -1.9
CCOC(=O)c1ccc(-n2c(N)c(C(=O)NCC3CCCO3)sc2=S)cc1 (stereo unspecified) | -6 | nt
O=C(O)c1ccc(CSc2ccc(C(F)(F)F)cn2)o1 | nt | -0.8
CC[N+](C)(CC)CCC[n+]1c(-c2ccccc2)c2cc(N)ccc2c2ccc(N)cc21 | nt | 104*!
Cc1ccc(CNc2oc(C)nc2C#N)cc1 | 14 | -1.9
CCC(Sc1nc2cc(OC)c(OC)cc2c2nc(CCn3nc(C)cc3C)nn12)C(=O)NCc1ccco1 (stereo unspecified) | 14 | nt
COc1cc(C(N)=O)ccn1 | nt | -1.6
CCN(CCC#N)c1ccc(/C=C(\C#N)C(=O)NC(C)C)c(C)c1 | -15 | nt
COc1ccc2oc(C(=O)NCCC(C)C)c(C)c2c1 | -8 | nt
Clc1cccc(-c2cnc(CSc3nnc(C4CC4)n3-c3ccccc3)o2)c1 | 24 | nt

Record cards (already shown).
`Clc1cccc(-c2cnc(CSc3nnc(C4CC4)n3-c3ccccc3)o2)c1` across the screens: Sa helicase inh: 24; MgrA DNA FP: nt
`CCN(CC1COc2ccccc2O1)S(=O)(=O)c1cccs1` (stereo unspecified) across the screens: Sa helicase inh: 26; MgrA DNA FP: nt
`CC1c2cccn2CCN1S(=O)(=O)c1ccccc1` (stereo unspecified) across the screens: Sa helicase inh: 3; MgrA DNA FP: nt

The listing continues:
SMILES | Sa helicase inh | MgrA DNA FP
O=C(NCc1ccc2c(c1)OCO2)c1ccccc1Cl | 11 | -2.2
O=C1C2C(C(=O)N1c1ccccc1)N1CCCN1C2c1ccccc1 (stereo unspecified) | 13 | 0.3
O=C1OC(c2ccc(O)cc2)(c2ccc(O)cc2)c2ccccc21 | nt | -0.2
COc1ccc(OC)c(C(c2c(O)[nH]c(=O)[nH]c2=O)N(Cc2ccccc2)C(C)C)c1 (stereo unspecified) | 19 | nt
COc1ccc(Br)c(OC)c1C(=O)O | nt | -0.1
COc1cc(C(=O)O)cc2c1OC(C)C2 (stereo unspecified) | -5 | nt
COC(=O)c1sccc1NC(=O)c1c(F)cccc1F | nt | 0.7
O=C(CNCC1CCCO1)N1CCCC1 (stereo unspecified) | 1 | 17
CCc1ccc2nc3sc(C(N)=O)c(N)c3cc2c1 | 0 | 5.7
CCc1ccc(NC(=O)c2ccc(N3CCCS3(=O)=O)cc2)cc1 | -12 | 2.2
CCCC12CN3CC(CCC)(CN(C1)C3c1ccccc1O)C2=O (stereo unspecified) | 32 | nt
CCN(CC)c1ncnc2sccc12 | nt | -2.8
O=C(O)C1c2ccccc2C(=O)N(Cc2ccc3c(c2)OCO3)C1c1cccnc1 (stereo unspecified) | nt | -0.9
CC(=NCC1CCNCC1)C1=C(O)CC(C)(C)CC1=O | 2 | 0.5
COCCN1C(=O)C=CC1=O | 7 | 3.0
CC(NC(=O)CSc1ccccc1C(=O)O)C1CC2CCC1C2 (stereo unspecified) | 7 | -2.7
O=C(O)CN(CC(=O)O)c1ccc(Cl)cc1 | -11 | -4.9
COC(=O)c1sccc1NC(=O)C(F)(F)F | nt | 1.0
COc1cccc(C2NC(C(=O)O)Cc3c2[nH]c2ccccc32)c1 (stereo unspecified) | -4 | 1.0
COc1ccc(C)cc1CC(=O)O | 4 | nt
Cc1cc(C)c(S(=O)(=O)N2CCC(C(N)=O)CC2)c(C)c1 | -18 | nt
CC(NC(=O)CSc1ncnc2ccccc12)C1CC2CCC1C2 (stereo unspecified) | -15 | -1.6
OC(CNCCNc1nccc(C(F)(F)F)n1)c1ccccc1 (stereo unspecified) | -20 | nt
COC(=O)c1ccccc1-n1cccc1C(=O)OC | nt | -0.7
COc1ccc(N(C(C)=O)S(=O)(=O)c2ccc(C)cc2)cc1 | 9 | -2.4

Next part:
SMILES | Sa helicase inh | MgrA DNA FP
CCC1CCCCN1Cc1c(O)cc(C)c2c1oc(=O)c1ccccc12 (stereo unspecified) | 10 | nt
O=C(CSc1nc2ccccc2o1)Nc1ccccn1 | -1 | 2.1
Cn1cc(S(=O)(=O)N2CCCC2)cc1C(=O)N1CCN(C2CCCCC2)CC1 | -14 | nt
CNC1CCS(=O)(=O)C1 (stereo unspecified) | -15 | nt
COc1cc(SC)ccc1C(=O)Nc1cccnc1 | 12 | nt
COC(=O)c1nnn(-c2nonc2N)c1CSC#N | 26 | 5.2
COc1ccc(C(=O)Nc2ccc(NC(=O)c3ccco3)cc2)cc1OC | -5 | 0.9
Cc1cccc(NC(=O)c2ccccc2)c1 | nt | -0.2
CC(C)(C)c1ccc(/C=C/C(=O)NCCCn2ccnc2)cc1 | 8 | 1.1
Cc1oc2ccc(OCc3cccc(F)c3)cc2c1C(=O)O | 26 | nt
N#CSC(C#N)Cc1ccccc1 (stereo unspecified) | 15 | -1.6
O=C(CSc1ncnc2sc3c(c12)CCCC3)N1CCCCC1 | -15 | -1.6
CCOC(=O)c1sc2nccc(Nc3ccccc3)c2c1N | 3 | 1.7
CC(C)C(OC(=O)c1ccccc1)c1nccc2ccccc12 (stereo unspecified) | nt | -1.4
COc1cc(CNCc2nnc3ccccn23)cc(I)c1O | 7 | nt
Cc1cc(NC(=O)c2cc(-c3ccc4c(c3)OCO4)on2)n(-c2ccccc2)n1 | 6 | 2.4
CC(=O)Nc1ccc(C(=O)OCC(=O)N2CCc3ccccc32)cc1 | 10 | -0.4
CC(C)(C)Sc1cccc2ccccc12 | 6 | -0.9
Cc1nc2c(o1)N(c1ccccc1)C(N)=C(C#N)C2c1ccc(OC(C)C)cc1 (stereo unspecified) | -11 | -0.8
COc1cccc(NCc2nnc(SCC(=O)N3CCc4ccccc43)n2C2CCCCC2)c1 | -3 | nt
O=C(Nc1ccc2c(c1)OCO2)c1ccccc1NC(=O)C1CC(=O)N(C2CCCC2)C1 (stereo unspecified) | -9 | nt
CCOC(=O)C1=C(C)N=c2s/c(=C\c3ccc(OC(C)=O)cc3OC(C)=O)c(=O)n2C1c1ccc(OC)cc1 (stereo unspecified) | nt | 1.1
COC(=O)C1=C(C)OC(N)=C(C#N)C1c1cc(C)cc(Cn2ccc(C(F)(F)F)n2)c1C (stereo unspecified) | 9 | 0.1
O=C(NCn1c(=S)n(CNC(=O)c2cccnc2)c2ccccc21)c1cccnc1 | -7 | nt
CCn1c(=NC(=O)c2ccc(S(=O)(=O)N(C)C)cc2)sc2cc(Cl)ccc21 | 21 | nt

Next section
SMILES | Sa helicase inh | MgrA DNA FP
CC(=O)c1coc2ccccc2c1=O | nt | -0.9
COc1ccc(C2=NOC(C(=O)N(C)C3CCCCC3)C2)cc1 (stereo unspecified) | -12 | nt
N#C/C(=N\Nc1ccc(Cl)c(Cl)c1)C(=O)C1CC1 | nt | -1.2
CCCC12CCC(C(=O)O)(CC1)CC2 | 7 | -0.8
Cc1ccc(-c2n[nH]c(=S)n2C)cc1 | -6 | nt
O=C1CN(C(=O)/C=C/c2ccc(S(=O)(=O)NCc3ccco3)cc2)c2ccccc2N1 | -6 | nt
Cc1ccc(C)c(NC(=S)NC2CC(C)CC(C)(C)C2)c1 (stereo unspecified) | nt | -1.4
CN(Cc1ccccc1)C(=O)Cn1nc(-c2ccc(Cl)cc2)ccc1=O | 11 | -0.4
CN(C)CCCNCc1ccccc1F | 6 | 3.5
CCCCN=Cc1c(O)n(-c2ccc(Cl)cc2)c(=O)[nH]c1=O | nt | -0.7
CCC(Sc1nc2ccncc2[nH]1)C(=O)NCCc1ccccc1 (stereo unspecified) | 2 | 0.8
O=C(NCc1ccco1)c1cc(-c2ccccc2)on1 | 1 | -3.0
COc1ccc(CN2C(=O)CC(Cc3ccccc3)C2=O)cc1OC (stereo unspecified) | -5 | nt
O=C(Nc1c(-c2ccccc2)nc2ncccn12)c1ccc(Cl)cc1 | 10 | nt
O=c1oc2cc(O)ccc2cc1-c1nc2ccccc2s1 | -73 | 18
COc1ccc(C(=O)Nc2ccccc2)cc1S(=O)(=O)N1CCC(C)CC1 | 15 | 0.2
COc1ccc(C2=NN3C(C2)c2ccccc2OC3c2ccc(OC)c(OC)c2)cc1OC (stereo unspecified) | nt | 1.0
CC(C(=O)O)n1cc(Cl)cn1 (stereo unspecified) | 4 | -11
O=S(=O)(c1ccc(N2CCCC2)nc1)N1CCCC1 | -13 | nt
Cc1onc(-c2ccccc2)c1CNS(=O)(=O)c1ccc2c(c1)CCO2 | nt | -1.5
CCN(CC)CC#CCOC(=O)C(O)(c1ccccc1)C1CCCCC1 (stereo unspecified) | nt | 0.2
Cc1sc2ncn3cnnc3c2c1-c1ccccc1 | 22 | nt
O=C1CC(NNc2nc3ccccc3s2)C(=O)N1c1ccccc1 (stereo unspecified) | 8 | -0.5
COCn1nc(-c2ccccc2Cl)oc1=S | 11 | -2.5
COc1ccc(C(=O)CSc2nc3nc(C)cc(C)c3c(=O)[nH]2)cc1OC | 14 | nt

Next structures
SMILES | Sa helicase inh | MgrA DNA FP
C=CCSc1nn2c(=O)c3ccccc3nc2s1 | 10 | nt
COc1ccc(Cn2c(CCC(=O)Nc3ccc(CC#N)cc3)nc3cccnc32)cc1 | -1 | nt
CN1CCN(S(=O)(=O)c2ccc(SCc3ccc(F)cc3)nc2)CC1 | 20 | nt
Cc1ccc(S(=O)(=O)c2cn(CC(=O)NC3CCCC3)c3nc(C)ccc3c2=O)cc1 | 5 | nt
Cc1ccc(C(=O)OCC(=O)c2cc(C)n(Cc3ccco3)c2C)cc1 | -3 | nt
O=C1/C(=C/c2ccc(N3CCOCC3)cc2)CCC1C1CCCC1 (stereo unspecified) | -10 | 1.4
CSc1nnc2nc3c(nn12)c1ccccc1n3C | 30 | 3.5
Cc1ccc(S(=O)(=O)N2CCN(Cn3cnc4ccccc43)CC2)cc1C | 16 | nt
CCN(CC)C(=O)c1nn(-c2ccc(OC)cc2)c(=O)c2c1c1ccccc1n2C | 14 | 0.9
Cc1cc(C)nc(SCc2csc(-c3ccccc3)n2)n1 | 1 | nt
CCC(CO)NC(=O)c1cn(-c2ccccc2)nc1-c1cccs1 (stereo unspecified) | 15 | 0.2
O=C(CSc1nc2cc3c(cc2c(=O)n1Cc1ccc2c(c1)OCO2)OCO3)NCCc1ccccc1 | 13 | nt
O=C(CSc1ncnc2sc3c(c12)CCCC3)N1CCCC1 | -23 | nt
NC(/N=C/c1ccccc1O)=N\S(=O)(=O)c1ccc(N=Cc2ccccc2O)cc1 | 2 | nt
CN(Cc1cccs1)C(=S)S | 15 | nt
CC1=C(/C=C/C(C)=C/C=C/C(C)=C/C(=O)Nc2ccc(O)cc2)C(C)(C)CCC1 | nt | 0.2
CCN(CC)c1ncc(Br)cn1 | -6 | nt
O=C(O)CN1C(=O)/C(=C\c2ccc(OCc3ccc(Cl)cc3Cl)cc2)SC1=S | nt | 5.0
CN1CCN(C/C=C/c2ccccc2)CC1 | 10 | -2.4
COc1cc(C(=O)N/N=C/c2ccc3c(c2)OCO3)cc(OC)c1OC | nt | 3.3
Cc1nc(C#N)c(N(C)C)o1 | 8 | nt
COc1ccc2c(c1)C(=O)N(c1ccc(Cl)cc1)C(=O)/C2=C/N1CC(C)OC(C)C1 (stereo unspecified) | 18 | nt
Cc1ccc(S(=O)(=O)N2CCN(c3nc(NC4CCCC4)c4ccccc4n3)CC2)cc1 | -5 | 0.6
CCS(=O)(=O)N1CCN=C1SCc1cccc(F)c1 | 7 | nt
Cc1ccc(/C=C/C(=O)N(Cc2ccccc2)c2ccccn2)cc1 | -10 | 1.7

Pulled one by one from the list above (7):
SMILES | Sa helicase inh | MgrA DNA FP
CCS(=O)(=O)N1CCN=C1SCc1cccc(F)c1 | 7 | nt
COc1ccc(Cn2c(CCC(=O)Nc3ccc(CC#N)cc3)nc3cccnc32)cc1 | -1 | nt
CN1CCN(S(=O)(=O)c2ccc(SCc3ccc(F)cc3)nc2)CC1 | 20 | nt
Cc1nc(C#N)c(N(C)C)o1 | 8 | nt
C=CCSc1nn2c(=O)c3ccccc3nc2s1 | 10 | nt
Cc1ccc(S(=O)(=O)N2CCN(Cn3cnc4ccccc43)CC2)cc1C | 16 | nt
CCN(CC)C(=O)c1nn(-c2ccc(OC)cc2)c(=O)c2c1c1ccccc1n2C | 14 | 0.9

Ordered by the number under Sa helicase inh (rising): some entries from above
SMILES | Sa helicase inh | MgrA DNA FP
Cc1ccc(S(=O)(=O)N2CCN(c3nc(NC4CCCC4)c4ccccc4n3)CC2)cc1 | -5 | 0.6
Cc1nc(C#N)c(N(C)C)o1 | 8 | nt
CCN(CC)C(=O)c1nn(-c2ccc(OC)cc2)c(=O)c2c1c1ccccc1n2C | 14 | 0.9
